Source: PubChem BioAssay
nsP2pro inh – Primary qHTS for inhibitors of NSP2Pro chikungunya virus (CHIKV). 31,000 compounds, 1.1% hits. FRET peptide cleavage, nsP2pro, fluorescence 1 h. Polyprotein P1234 (Chikungunya virus (strain S27-African prototype)), Q8JUX6. Potency, µM (highest dose often 24.9 µM), for the others: at the highest dose activity change, negative = inhibition, usual class: inhibitors; active means well fitted inhibition curve with a large enough effect; inconclusive means small, poorly fitted or top-dose-only effect; inactive means no such curve, though single readings can be large or run the other way; note: nearly all actives have a fitted effect of over 60% in size; a reference inhibitor and vehicle were the controls
* = called active by the depositor; i = inactive; u = inconclusive; & = joins results of further samples; [ ] = another dose, or the depositor's remark. % is set by controls: 0 for no effect and ±100 for the full control effect; potency is the fitted concentration of half-maximal effect.

SMILES	nsP2pro inh
CC[C@H](C)C1NC(=O)[C@H](Cc2ccc(O)cc2)NC(=O)[C@@H](N)CSSC[C@@H](C(=O)N2CCC[C@H]2C(=O)N[C@@H](CC(C)C)C(=O)NCC(N)=O)NC(=O)[C@H](CC(N)=O)NC(=O)[C@H](CCC(N)=O)NC1=O (stereo partly specified)	17%
COc1ccc(OC)c(-c2cc(Cl)c3c(c2)CC(CNC(=O)c2c(F)cccc2F)O3)c1 (stereo unspecified)	1%
COC(=O)c1sc2c(c1-c1nc3ccccc3s1)CCNC2	u
COCC1CN(C2CCC2)CC12CCN(C(=O)NCCc1ccccc1)CC2 (stereo unspecified)	-2%
Cc1ccn2c(Nc3ccc4c(c3)OCO4)c(-c3ccco3)nc2c1	u
NC(=O)c1cccc(CC2CCN(C(=O)c3ccnc(-n4cnnc4)c3)C2)c1 (stereo unspecified)	i
O=C1CN(Cc2cc3cc4c(cc3[nH]c2=O)OCO4)CCCN1	u
Brc1ccc(-c2csc(N3CCNCC3)n2)cc1	i
COCC1CN(C)CC12CCN(C(=O)Cc1ccc(OC)c(Cl)c1)CC2 (stereo unspecified)	i
Cn1cc(S(=O)(=O)NC2CC(c3cc(N4CCC(O)C4)ncn3)C2)cn1 (stereo unspecified)	-6%
CCC(Sc1nc2ncccc2o1)C(=O)Nc1cccc(C)c1 (stereo unspecified)	u
C/C=C/c1ccc(O)c(OC)c1	u
COc1cc(-c2cccc(O)c2)cc2c1OCO2	102%[activator]
Cc1cccc(CCNC(=O)C2CCCN(S(=O)(=O)c3ccc4c(c3)oc(=O)n4C)C2)c1 (stereo unspecified)	-10%
N[C@@H](CSSC[C@H](N)C(=O)O)C(=O)O	-5%[0.199 µM]
CC(=O)Nc1sc2c(c1-c1cccnc1)CCNC2	1%
Fc1cc(-c2nc(Nc3ccc(F)c(F)c3)c3ccccc3n2)ccn1	i
CC(C)NC(=O)C1CCc2nnc(CNC(=O)Nc3cccnc3)n21 (stereo unspecified)	-1%
CCc1c(C)sc2c1CCN(C(=O)Nc1ccc(F)c(Cl)c1)C2c1ccc(F)cc1 (stereo unspecified)	-7%
NC(=O)c1cc(F)cc2c1C(=O)N(C1CCN(C3CCC(F)(F)CC3)CC1)C2	-11%
CC(C)N1C(=O)C2(CCCCC2)C1C(=O)NCc1nc2ccccc2n1C (stereo unspecified)	-3%
Cc1n[nH]c(C)c1Cc1sc2c(c1C(=O)N1C[C@H](O)CO1)c(=O)n(C)c(=O)n2CC(C)C	-13%
CN(C)c1ccc(C2N=C(Nc3nc4ccccc4o3)NC3=C2C(=O)CCC3)cc1 (stereo unspecified)	4%
CC(=O)Nc1sc2c(c1-c1ccc(C(N)=O)cc1)CCNC2	i
Cn1c(=NC(=O)c2ccc3c(c2)OCCO3)sc2cc(S(C)(=O)=O)ccc21	-24%
O=C(/C=C/c1ccc(CN(CCO)CCc2c[nH]c3ccccc23)cc1)NO	-22%&-28%
CC(C)NC(=O)N[C@H]1C[C@H]2C(=O)NC[C@@H](CCC(=O)N3CCN(c4ccccn4)CC3)N2C1	0%
O=C(Nc1ncc(-c2ccccc2)s1)c1ccc(-c2cccc([N+](=O)[O-])c2)o1	-8%
CCCOCC(=O)N1CCc2onc(-c3ccc(C(F)(F)F)cc3)c2C1	1%
CC(=O)NC(Cc1c[nH]c2ccccc(=O)c12)C(=O)O (stereo unspecified)	146%[activator]
CC(=O)Nc1ccc(NC(=O)c2cc3sccc3n2Cc2ccc(F)cc2)cc1	40%[activator]
CC(=O)N1c2ccc(S(=O)(=O)Nc3ccc(Cl)cc3C)cc2CC1C (stereo unspecified)	-16%
NC(=O)C1CCN(c2nc(-c3ccccc3F)cs2)CC1	-4%
FC(F)(F)C(F)(F)C(F)(F)C(F)(F)C(F)(F)C(F)(F)F	14%
CC1CCC(n2c3cnccc3c3cnc(Nc4ccc5c(n4)CCN(C(=O)CO)C5)nc32)CC1 (stereo unspecified)	-4%
Cc1cccc(-n2cnc3cc(C(=O)N4CCC(N5CCOCC5)CC4)ccc32)c1	-8%
COc1cc2c(cc1OCC1CCCC1)N([S+](=O)([O-])c1ccc(Oc3ccccc3)cc1)CC21CCN(CC(=O)O)CC1	i
c1ccc(-n2ccc(-c3nnc4n3CCCCC4)c2)cc1	13µM*
O=C(C(=O)N1CCc2[nH]nc(-c3ccccc3F)c2C1)c1ccco1	-9%
CCc1noc(-c2cn(C3CCCN(C(=O)c4ccc(C(C)(C)C)cc4)C3)nn2)n1 (stereo unspecified)	2%
CCOC(=O)c1c(C)[nH]c(C)c1S(=O)(=O)N1CCCC(C(=O)Nc2ccc(F)cc2F)C1 (stereo unspecified)	-17%
COc1cccc(CNC(=O)c2cc(S(=O)(=O)N3CCCCC3)c[nH]2)c1	-20%
CCOC(=O)C1=C[C@]2(CC)CCCN3CCc4c(n1c1ccccc41)[C@@H]32	u
CN1CCCCCCN(C(=O)c2cnccn2)[C@H]2CCC[C@H]2C1=O	5%
CCc1[nH]c2ccc(OC)cc2c1CCN(C)C	u
Cc1noc(C2CN(C(=O)c3cc(-c4ccco4)[nH]n3)CC2c2ccccc2)n1 (stereo unspecified)	10µM*
OC[C@H]1O[C@@H](OC/C=C/c2ccc(O)cc2)[C@H](O)[C@@H](O)[C@@H]1O	16%
COc1ccc(-c2nc3ccc(C4=NNC(=O)CC4C)cc3[nH]2)cc1 (stereo unspecified)	-11%&-4%&41%&16%
CN1CCc2ccc3c4c2[C@]1(C)Cc1cccc(c1-4)OCO3	i
Cc1nn(CC(=O)NC2CCC(C)CC2)c(=O)c2c1sc1ccccc12 (stereo unspecified)	-19%
O=C(NNc1nc2cc(F)ccc2n2cccc12)c1cnccn1	126%[activator]
Cc1ccc(C)c(C(=O)N2CC(c3nnc(-c4ccncc4)o3)C3(CCOCC3)C2)c1 (stereo unspecified)	i
O=C(Cc1ccc(F)c(F)c1F)N[C@@H]1CCNC[C@H]1O	i
COC(=O)C(CC1CCCC1)c1ccc(S(C)(=O)=O)cc1 (stereo unspecified)	-10%
CN(C)c1ccc(-c2cc[nH]c(=O)c2N)cc1	-28%
CN1CCC(Nc2ncc(C(C)(C)C(=O)O)c(N3CCOCC3)n2)CC1	-2%
C[n+]1cc(NC(=O)c2cccc(C(=O)Nc3cc4ccccc4[n+](C)c3)n2)cc2ccccc21	-5%
O=C(NCCCn1cccn1)c1ccccc1OC1CCN(Cc2ccccn2)CC1	4%
Cc1ccc(CN2C(=O)NC3(CCN(C(=O)Cc4cccc(F)c4)CC3)C2=O)cc1	1%
CC1(C)CCC2(C(=O)OC3OC(CO)C(O)C(O)C3O)CCC3(C)C(=CCC4C5(C)CCC(OC6OC(C(=O)O)C(OC7OC(CO)C(O)C(O)C7O)C(OC7OC(CO)C(O)C(O)C7O)C6O)C(C)(C)C5CCC43C)C2C1 (stereo unspecified)	u
Carrying on.
SMILES	nsP2pro inh
CN1C(C(=O)Nc2ccccn2)=C(O)c2sc(Cl)cc2S1(=O)=O	-1%
O=C(CNC(=O)c1ccccc1F)OCc1cc(=O)n2nc(C3CCCCC3)sc2n1	-14%
CC(=O)N1CCN(c2ccc(NCc3ccc4c(c3)OCO4)cc2)CC1	i
COc1ccccc1C(=O)Nc1nc2ccc(S(=O)(=O)N3CCCC3)cc2s1	-17%
CC1(C)[C@@H](OC(=O)CCC(=O)O)CC[C@]2(C)[C@H]3C(=O)C=C4[C@@H]5C[C@@](C)(C(=O)O)CC[C@]5(C)CC[C@@]4(C)[C@]3(C)CC[C@@H]12	4%
CCOc1ccc(CNC(=O)c2ccc3c(c2)N(CC)CCS3)cc1	-15%
CCCC(=O)Nc1ccc2nn(-c3ccc(CC)cc3)nc2c1	-17%
COc1ccc(C(=O)C2CCN(CC(=O)N(Cc3nc4c(c(=O)[nH]3)COCC4)CC3CC3)CC2)cc1	-10%
CCCCOc1ccc(C2C(=O)N(C3CCCCC3)CC(=O)N2C2CCCCC2)cc1 (stereo unspecified)	2%
CCCCN(C)CCCNC(=O)CN1N=C(c2ccc(OC)cc2)CCC1=O	-25%
COc1ccc(S(=O)(=O)N[C@H]2C[C@H]3C(=O)NC[C@@H](CCC(=O)NCc4ccccc4)N3C2)cc1	-4%
COC(=O)c1nc(-c2cccc3ccccc23)oc1OC	5%
CC(C)(C)c1ccccc1Nc1nc(C#N)nc(NC2CCCC2)n1	i
O=C(O)Cn1nnc(-c2ccc(OCc3cccc(C(F)(F)F)c3)cc2)n1	-24%
C=Cc1nc(Nc2cc(F)cc(F)c2)nc(NC2CCCC2)n1	1%
CCOc1ccccc1CNc1nc2nc(C)cc(C)n2n1	-25%
COC(=O)c1scc(-c2ccc(C)cc2)c1S(=O)(=O)Nc1cc(Cl)ccc1C	-14%
COc1ccc(C(=O)Nc2ccc(-c3nc4ccccc4[nH]3)cc2)cc1F	-11%
Cc1ccc(-c2cc(C(=O)Nc3ccc(-c4noc(=O)[nH]4)cc3)c3ccccc3n2)cc1C	i
COCC1CN(Cc2ccc(F)c(F)c2)CC12CCNCC2 (stereo unspecified)	-10%
C[C@H]1C[C@H]2[C@H]3CCC4=CC(=O)C=C[C@]4(C)[C@@]3(F)[C@@H](O)C[C@]2(C)[C@@]1(OC(=O)c1ccccc1)C(=O)CO	4%
CC(=O)C1CCN(c2ncc(-c3cccc(N(C)C)c3)s2)CC1	i
CC(=O)NCCC(=O)N1CCC2(CC1)CC(N[S+](C)(=O)[O-])c1ccccc12 (stereo unspecified)	-5%
O=C(N1CCC(NS(=O)(=O)c2cccs2)CC1)N1CC2CC(C1)[C@H]1CCCC(=O)N1C2 (stereo partly specified)	i

Compounds listed so far that have a thiophene ring, fused or not:
SMILES	nsP2pro inh
COC(=O)c1sc2c(c1-c1nc3ccccc3s1)CCNC2	u
CC(=O)Nc1sc2c(c1-c1cccnc1)CCNC2	1%
CCc1c(C)sc2c1CCN(C(=O)Nc1ccc(F)c(Cl)c1)C2c1ccc(F)cc1 (stereo unspecified)	-7%
Cc1n[nH]c(C)c1Cc1sc2c(c1C(=O)N1C[C@H](O)CO1)c(=O)n(C)c(=O)n2CC(C)C	-13%
CC(=O)Nc1sc2c(c1-c1ccc(C(N)=O)cc1)CCNC2	i
CC(=O)Nc1ccc(NC(=O)c2cc3sccc3n2Cc2ccc(F)cc2)cc1	40%[activator]
Cc1nn(CC(=O)NC2CCC(C)CC2)c(=O)c2c1sc1ccccc12 (stereo unspecified)	-19%
CN1C(C(=O)Nc2ccccn2)=C(O)c2sc(Cl)cc2S1(=O)=O	-1%
COC(=O)c1scc(-c2ccc(C)cc2)c1S(=O)(=O)Nc1cc(Cl)ccc1C	-14%
O=C(N1CCC(NS(=O)(=O)c2cccs2)CC1)N1CC2CC(C1)[C@H]1CCCC(=O)N1C2 (stereo partly specified)	i

Later entries.
SMILES	nsP2pro inh
CCN(C(=O)CO)[C@H]1CN(C(=Nc2cccc(OC(F)F)c2)NC#N)N=C1c1ccc(Cl)c(Cl)c1	-3%
Cc1ccc(CCNC(=O)c2cc3sccc3n2Cc2ccc(F)cc2)cc1	u
CC1(C)C[C@H](O)C[C@@]2(C)OC(=O)C=C12	49%[activator][39.2 µM]
CNC(=O)c1cccc(-c2cnc(Nc3ccc(Cl)cn3)c3c2CCO3)c1	i
CCOC(=O)COc1ccc2c(c1)C[C@@H](NC[C@H](O)c1cccc(Cl)c1)CC2	4%
COc1ccc(N2CCN(C(=O)c3ccc(NC(=O)c4nsc5ccccc45)cc3)CC2)cc1	-13%
CCOc1ccc(OCC)c(Nc2cc(C)nc3nc(-c4ccco4)nn23)c1	-19%
CC12CCC3C(C)(C)C(O)CCC3(C)C1Cc1c(oc(C(=O)O)cc1=O)O2 (stereo unspecified)	-10%
COc1ccccc1NC(=O)c1ccc2ccccc2c1	1%
O=C(Cn1c(=O)oc2cc(S(=O)(=O)N3CCCC3)ccc21)Nc1ccc(OC(F)(F)F)cc1	-19%
Fc1ccc(Nc2nc(-c3ccncc3Cl)nc3ccccc23)cc1F	i
COc1ccc2c(CNC3CCCC3)c(C(=O)O)n(Cc3ccccc3C)c2c1	-18%
Cc1ccc(-c2cc(C(=O)Nc3ncco3)c3ccccc3n2)cc1C	i
COC(=O)c1c(NC(=O)C(C)Oc2ccc(Cl)c(C)c2)sc(C)c1C (stereo unspecified)	-22%
COc1ccccc1NC(=O)c1oc2ccccc2c1NC(=O)Cc1cccs1	-17%
CN1CCCC1CCOC(c1cc2nccc(C(=O)O)c2[nH]1)c1ccccc1Cl (stereo unspecified)	-10%
CCOC(=O)C1CCN(c2nc(-c3ccc(Br)cc3)cs2)CC1	3%
CCCSc1nc2sc3c(c2c(=O)n1-c1ccc(C)cc1)CCCC3	-16%
COCc1nc(-c2ccc(OC3CN(C(=O)NCc4ccc(OC)cc4)C3)cc2)no1	i
C=C1C(=O)O[C@@H]2C[C@H](C)C3=CC(=O)[C@H](O)[C@@]3(C)C[C@H]12	10%
C=C1C[C@@H]2CC[C@@]34C[C@H]5O[C@H]6[C@@H](O3)[C@H]3O[C@H](CC[C@@H]3O[C@H]6[C@H]5O4)CC(=O)C[C@@H]3[C@@H](OC)[C@@H](C[C@H](O)CN)O[C@H]3C[C@H]3O[C@@H](CC[C@@H]1O2)C[C@@H](C)C3=C	4%
Cc1ccc(S(=O)(=O)N(CC(=O)N2CCc3ccccc3C2)c2ccc(C)c(C)c2)cc1	-20%
COc1ccc(NC(=O)[C@H]2O[C@@H]3OC(C)(C)O[C@@H]3[C@H]3OC(C)(C)O[C@H]32)c(OC)c1	-7%
O=C1CCc2cc(S(=O)(=O)NC(C(=O)Nc3cccc(F)c3)c3ccccc3)ccc2N1 (stereo unspecified)	-10%
Cc1cc(-c2ccc(S(=O)(=O)N3CCN(c4ccc(Cl)cc4)CC3)s2)on1	-16%
CN1C[C@@H]2CN(c3ccc(-c4ccccc4)nn3)C[C@@H]2C1	-4%

A portion of the library; rates above refer to the full screens.
